miR-21 reporter: miR-21 reporter, rising signal; Potency, µM (doses to about 38.3 µM), inactives show at the top dose reporter change, positive = more light; HeLa miR-21 FLuc reporter, luciferase, 48 h; 340,000 tested, under 10 active; active = well fitted rising curve with a large enough effect; inconclusive = small, poorly fitted or top-dose-only effect; inactive = no such curve, though single readings can be large or run the other way;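 further: % of control where 0% means no effect; miR-21 action dims this reporter so a rising signal means less miR-21 action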
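Compounds were titrated across several concentrations (up to approximately 40 uM) and incubated 48 hours with HeLa miR-21-FLuc reporter cells (miR-21 target sequence downstream of FLuc, endogenous miR-21). Readout was firefly luciferase luminescence after lytic detection reagent.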
Rango complex inh: inhibitors of Rango-importin beta complex formation | Potency, µM (series often up to 92.2 µM), without a hit: at the highest dose inhibition of complex formation | actives 0.031% (n = 340,000) | Rango CFP/YFP FRET sensor + importin beta, 45 min; active = rising FRET ratio curve, often small or poorly fitted; inconclusive = mostly compound fluorescence or quenching in the first reads; inactive = flat curves in all reads;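 further: potency means the concentration at half of the fitted maximal effect; 0% = DMSO wells and 100% = buffer wells lacking importin beta; nearly all actives have a fitted effect of over 15% in size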
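FRET biosensor (snurportin 1 IBB flanked by EYFP and cerulean), 50 nM, with compound 5 min, then 0.125 microM importin beta in PBS, 1 mM DTT, 0.02% Tween-20, 0.1% BSA. CFP/YFP ratio read after 45 min at room temperature; pre-read flags interference.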
GLA inh pH 4.5: inhibitors of human alpha-galactosidase A at pH 4.5 | P06280 | purified enzyme, 4-MU-alpha-Gal fluorescence, pH 4.5 | activity change, negative = inhibition, % at 105 µM | 230,000 tested, under 10 active | AID 1467; inconclusive = small, poorly fitted or top-dose-only inhibition, or a rising curve; inactive = flat fitted curve, though single readings scatter; no compound was filed as active;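 further: 0% = full activity with enzyme and -100% = basal without enzyme; dose as in the result columns while the protocol names 77 µM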
Target sequence (P06280 whole entry, looked up): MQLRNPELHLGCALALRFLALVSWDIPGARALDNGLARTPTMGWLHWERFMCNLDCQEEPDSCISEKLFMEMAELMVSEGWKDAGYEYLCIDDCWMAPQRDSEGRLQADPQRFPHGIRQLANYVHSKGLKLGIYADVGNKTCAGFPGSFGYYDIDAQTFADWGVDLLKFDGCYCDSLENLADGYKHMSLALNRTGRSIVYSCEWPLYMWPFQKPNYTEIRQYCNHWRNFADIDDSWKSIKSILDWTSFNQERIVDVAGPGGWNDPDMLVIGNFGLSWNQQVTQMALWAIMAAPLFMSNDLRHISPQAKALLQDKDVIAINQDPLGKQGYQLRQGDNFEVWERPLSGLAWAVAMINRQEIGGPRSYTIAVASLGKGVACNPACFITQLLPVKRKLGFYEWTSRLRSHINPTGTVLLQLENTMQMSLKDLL
Rango release inh: inhibitors of RanGTP-induced Rango-importin beta complex dissociation. Biochemical FRET Rango-importin beta, RanGTP-induced dissociation. Potency, µM (series often up to 46.1 µM), inactives show at the top dose activity change, negative = inhibition. actives 0.071% (n = 340,000); active means falling FRET ratio curve, often poorly fitted, with flat reads before Ran was added; inconclusive means other falling curves, or compound fluorescence or quenching; inactive means flat or rising ratio curve;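 further: potency means the concentration at half of the fitted maximal effect; % of control where 0% means no effect; nearly all actives have a fitted effect of over 45% in size; -100% = wells without RanGTP and RCC1; the record marks most hits as doubtful in a second field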
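Recombinant Rango FRET biosensor (EYFP–snurportin 1 IBB–cerulean CFP10) at 0.1 uM premixed with 0.25 uM importin beta in PBS, 1 mM DTT, 0.02% Tween-20, 0.1% BSA. Compound added 5 min; RanGTP-RCC1 (0.6 uM Ran, 2 mM GTP, 0.2 uM RCC1) then triggers release, read at 45 min.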
Starred values were filed as active, the others as inactive; u = inconclusive; x = not tested or not shown; [ ] = remark or other dose. An excerpt, so the mix of outcomes need not match the whole.

miR-21 reporter,Rango complex inh,GLA inh pH 4.5,Rango release inh,Structure
-1.4%,-0.5%,-0.5,-9.9%,COCCn1c(SCC#N)nnc1-c1ccc([N+](=O)[O-])cc1
-3.1%,-2.9%,x,17.7%,O=[N+]([O-])c1ccccc1S(=O)(=O)N1CCCC(C(F)(F)F)C1 (stereo not drawn)
-2.4%,0.9%,-7.2,2.2%,Cc1ccccc1-n1c(Cn2c(=O)sc3ccccc32)nnc1SCC(=O)Nc1nccs1
22.8%,2.8%,-14.1,-6.9%,Cc1cccc(NC(=O)c2cc(S(=O)(=O)c3ccccc3)ccc2Cl)c1
x,1.0%,x,-1.4%,O=C(CCNC(=O)c1ccccc1Cl)NN=Cc1ccco1
-7.8%,0.2%,2.7,-3.8%,O=C(Nc1ccccc1N1CCCCC1)c1ccc(F)cc1
-1.3%,0.8%,4.5,14.8%,CCOC(=O)C1ON2CCCCC2C1(O)C(F)(F)F (stereo not drawn)
x,u,5.7,5.8%,O=c1oc2cc(O)ccc2s1
-0.1%,0.2%,-2.4,-8.4%,COc1ccccc1NC(=O)COC(=O)Cc1c[nH]c2ccccc12
2.7%,-1.0%,-5.5,2.5%,CC(C)C(=O)Nc1nnn(C)n1
x,0.3%,x,-15.0%,COc1ccc(NC(=O)COc2cccc3c2OC(C)(C)C3)c(OC)c1
-0.6%,0.2%,x,2.4%,CC(C)CN(CC(C)C)C(=O)CN1C(=O)NC2(CCc3ccccc3C2)C1=O (stereo not drawn)
-11.4%,2.2%,-10.8,1.6%,Cc1ccc(S(=O)(=O)N2CCOCC2)cc1NC(=O)COC(=O)CNC(=O)c1ccccc1
18.2%,4.4%,3.1,-0.3%,CCOC(=O)N1CCN(C(=O)COc2cccc3c2CCN(Cc2ccc(F)cc2)C3=O)CC1
-38.6%,1.7%,-2.3,-6.1%,COc1cc(/C=N/NC(=O)CN2CCOCC2)ccc1OCc1ccccc1
-1.7%,6.7%,-1.8,17.4%,CN(C(=O)CN1CCC(NC(=O)C2CCCCC2)CC1)C1CCCCC1
-2.1%,-2.4%,x,-5.5%,COc1ccc(C)cc1N(CC(=O)Nc1ccc(S(=O)(=O)N2CCOCC2)cc1)S(C)(=O)=O
x,-0.9%,x,u,Cc1ccc(N2CC(NS(=O)(=O)c3cccnc3)CC2=O)cc1C (stereo not drawn)
1.9%,1.9%,0.6,-7.8%,CC(C)Oc1ccc(C2NC(=O)NC2=O)cc1 (stereo not drawn)
0.1%,5.1%,-3.1,-14.5%,COc1ccc2c(c1)CC[C@@H]1[C@@H]2CC[C@]2(C)C(=O)CC[C@@H]12
-7.4%,-4.5%,x,-0.4%,Cc1ccc2nc(N3CCC(C(=O)NC4CCCCC4)CC3)sc2c1
14.4%,3.7%,-6.8,-9.6%,CC1=C(C(=O)OC(C)C)C(C)C(C(=O)OC(C)C)=C(C)N1
3.6%,0.2%,x,6.1%,CCc1ccc(OCC2c3cc(OC)c(OC)cc3CCN2C(C)=O)cc1 (stereo not drawn)
4.3%,0.6%,-17.6,-6.7%,Cc1ccc(NC(=S)N(CCN2CCCCC2)Cc2ccco2)cc1C
-35.9%,8.0%,-1.1,-10.1%,Fc1cccc(-c2cc3nc4c(c(N5CCOCC5)n3n2)CCCC4)c1
3.5%,4.9%,x,-11.9%,Cc1cccc(NC(=O)Cn2c(=O)n(CC3CCCO3)c(=O)c3ccccc32)c1 (stereo not drawn)
-2.3%,0.2%,-3.0,-0.4%,CC(=O)c1ccc(Oc2cc(C(F)(F)F)cnc2C(N)=O)cc1
-2.0%,u,-5.4,-28.0%,CC(C)C1=C2CCCCC2NC(=O)N1 (stereo not drawn)
0.1%,-0.7%,-8.0,12.2%,CN1CCN(NC(=S)Nc2ccccc2)CC1
-0.6%,3.5%,x,-15.1%,COc1ccccc1P(=O)(Cc1ccccc1)c1ccccc1 (stereo not drawn)
-44.3%,1.0%,-0.2,13.1%,CCOc1ccc(-c2nc(CCl)cs2)cc1
-1.0%,x,1.5,x,O=C(CNS(=O)(=O)c1ccc(Br)cc1)OCc1cc(=O)n2cc(Br)ccc2n1
-52.8%,-0.7%,1.0,16.2%,c1ccc2c(Nc3nc4c(s3)CCCC4)cccc2c1
-9.6%,0.8%,x,-2.2%,COc1ccc(C(CNC(=O)CSc2ccccc2C)N(C)C)cc1 (stereo not drawn)
-1.1%,1.4%,x,-7.6%,COc1ccc(CC(=O)NNC(=O)c2cc(C)[nH]n2)cc1
-5.7%,u,1.8,8.6%,CCOC(=O)C1CCCN(c2c(NCCCN3CCCC(C)C3)c(=O)c2=O)C1 (stereo not drawn)
-11.4%,8.6%,7.9,0.4%,CCN(CC)S(=O)(=O)c1cccc(NC(=O)/C=C/c2ccc([N+](=O)[O-])cc2)c1
1.0%,0.0%,5.7,12.5%,Cc1ccc(C(=O)NCCc2nnc3ccc(SCC(=O)Nc4ccccc4C)nn23)cc1
x,-0.1%,x,10.9%,CC(=O)N1CCN(C(=O)COC(=O)/C=C/c2ccc(C(F)(F)F)cc2)CC1
1.3%,7.9%,x,6.0%,CCOc1ccc(NC(=O)CCC(=O)N/N=C(\C)c2cccs2)cc1

Entries shown so far that have an NH in an aromatic ring (2):
miR-21 reporter,Rango complex inh,GLA inh pH 4.5,Rango release inh,Structure
-0.1%,0.2%,-2.4,-8.4%,COc1ccccc1NC(=O)COC(=O)Cc1c[nH]c2ccccc12
-1.1%,1.4%,x,-7.6%,COc1ccc(CC(=O)NNC(=O)c2cc(C)[nH]n2)cc1

Shown with two lines to a compound: entries from further up.
Each structure is followed by: miR-21 reporter	Rango complex inh	GLA inh pH 4.5	Rango release inh
> CCOc1ccc(-c2nc(CCl)cs2)cc1
 : -44.3%	1.0%	-0.2	13.1%
> COCCn1c(SCC#N)nnc1-c1ccc([N+](=O)[O-])cc1
 : -1.4%	-0.5%	-0.5	-9.9%
> COc1ccc(C(CNC(=O)CSc2ccccc2C)N(C)C)cc1 (stereo not drawn)
 : -9.6%	0.8%	x	-2.2%

Continuation:
miR-21 reporter,Rango complex inh,GLA inh pH 4.5,Rango release inh,Structure
0.5%,-3.9%,3.7,18.9%,CCCNC(=O)CSc1nccn1Cc1ccco1
-3.2%,u,1.7,-9.2%,Cc1nn(CC2CC2)c(=O)n1N(C)c1ncc(C(F)(F)F)cc1Cl
-2.9%,-0.2%,x,-0.7%,O=S(=O)(Nc1cccc(-c2cn3c(n2)SCC3)c1)c1ccccc1F
-1.0%,0.6%,6.2[21.1 µM],2.0%,O=C(NC1CC1)c1ccc(C2SCC(=O)N2Cc2ccccc2)cc1 (stereo not drawn)
-12.3%,1.3%,-11.0,13.3%,CCn1c(/C=N/Nc2ccc(C(=O)O)cc2)nc2ccccc21
x,0.8%,x,u,O=C(NCCS(=O)(=O)N1CCN(c2ccccc2F)CC1)c1cccs1
-1.4%,0.1%,-3.4,-19.1%,CC(=O)NC12CC3CC(C1)CC(C(=O)OCC(=O)Nc1ncc(Cl)c(C)c1Cl)(C3)C2
0.7%,-1.5%,-5.0,9.2%,Cc1cn(C2OC[C@@H](O)[C@@H]2CO)c(=O)[nH]c1=O (stereo partly drawn)
x,0.5%,x,-16.2%,Cc1ccc(C)c(S(=O)(=O)N2CCN(C(=O)CNC(=O)c3sc4ccccc4c3Cl)CC2)c1
-35.3%,2.9%,x,0.8%,COc1ccc(CNc2cc(C)ccn2)cc1
-10.7%,4.1%,-4.3,5.0%,O=S(=O)(/N=C(/c1ccc(F)cc1)N1CCCCC1)c1ccc(Cl)cc1
x,0.2%,x,0.1%,O=C(COC(=O)c1ccccc1OCc1ccccc1Cl)NC1CCS(=O)(=O)C1 (stereo not drawn)
2.3%,1.3%,2.9,11.9%,COc1cc(NC(=S)NCc2ccco2)cc(OC)c1
-8.9%,0.2%,-4.0,2.6%,COC(=O)CCC(=O)Nc1cccc(Cl)c1
0.0%,-0.1%,-1.7,-4.6%,CCCn1c(SCC(=O)NCc2ccco2)nnc1C(C)C
-10.3%,0.2%,-1.2,-14.6%,Cc1ccc(NC(=O)Nc2ccc(F)cc2F)c(OC(F)F)c1
-49.7%,-0.4%,-2.6,1.5%,Cc1ccsc1C(=O)OCc1nc2ccccc2c(=O)[nH]1
-17.8%,1.8%,1.1,-28.4%,COc1ccccc1NC(=O)CN1CCC(n2c(C)nc3cc(F)ccc32)CC1
-9.9%,-0.4%,x,-12.2%,COc1ccc([N+](=O)[O-])cc1NC(=O)c1csc(C)c1
-8.2%,0.2%,-7.5,18.4%,COc1ccccc1NC(=O)CC1C(=O)NCCN1C(=O)Nc1ccc(Cl)c(Cl)c1 (stereo not drawn)
0.6%,u,3.8,u,O=C(NNC1=Nc2cccc3cccc1c23)c1ccc(Br)cc1
-6.6%,0.3%,x,2.8%,CCOC(CNC(=O)Cn1nc(Cc2ccncc2)c2ccccc2c1=O)OCC
x,-1.7%,x,0.2%,CC1CCCC(O)(C(C(=O)O)c2ccccc2)C1 (stereo not drawn)
x,-0.5%,x,-19.1%,COc1ccc(OC)c(/C=C/C(=O)OCC(=O)Nc2nnc(-c3ccccc3)o2)c1
u,u,-6.8,u,COc1ccc2[nH]c3c(C)c4ccncc4c(C)c3c2c1
-6.7%,-3.9%,-9.6,-20.4%,CCOc1ccc(S(=O)(=O)N2CCN(C(=O)c3cc4c(s3)CCCC4)CC2)cc1
-46.2%,-2.4%,x,5.0%,c1ccc(-c2nc3ccccc3[nH]2)cc1
2.2%,-1.3%,-13.9,12.6%,CC(=O)c1c(C)nc(-c2ccccc2)nc1NC(=O)C(C)C
-6.5%,-1.3%,x,1.0%,CC(=O)c1cccc(NC(=O)c2cc(-c3ccco3)on2)c1
x,1.9%,x,-14.0%,CNc1snc(C)c1C(=O)OC(C)C(=O)Nc1cccc(C)c1 (stereo not drawn)
x,8.9%,x,10.3%,Cc1cccc(Nc2nc(NCCO)nc(N3CCCC3)n2)c1
-20.0%,-0.5%,13.7,6.0%,COc1cccc(-c2cc(C(=O)N3CCCCCC3)no2)c1
x,5.7%,x,0.2%,Cc1cc(NC(=O)C(C)SCC(=O)OCC(=O)N(C)c2ccccc2)no1 (stereo not drawn)
x,-1.2%,x,3.8%,CCC(C)c1ccc(S(=O)(=O)N2CCN(C(C)C(=O)NC3CCCC3)CC2)cc1 (stereo not drawn)
-5.1%,-1.9%,-8.9,-13.2%,O=C(COC(=O)Cc1ccc(Cl)cc1)Nc1ccc(OC(F)F)cc1
-5.6%,-0.8%,3.6,2.0%,CCCn1c(Cc2ccccc2)n[nH]c1=S
-9.3%,3.8%,-8.8,-12.2%,COc1ccc(NC(=O)CN(C)CC(=O)Nc2cccc(F)c2)cc1Cl
-8.9%,0.8%,-0.5,4.2%,CSCCC(NC(=O)/C(=C/c1ccc2c(c1)OCO2)NC(=O)c1cccc([N+](=O)[O-])c1)C(=O)O (stereo not drawn)
1.6%,-0.5%,3.4,0.4%,COc1cc(C(=O)N(c2ccc(C)c(C)c2)C2C=CS(=O)(=O)C2)cc(OC)c1OC (stereo not drawn)
-2.6%,0.0%,x,-1.3%,OCC1(Cc2ccc(F)cc2F)CCCN(CCCc2ccccc2)C1 (stereo not drawn)
6.5%,-1.3%,x,-2.9%,Cc1cc(C(C)(C)C)cc(C)c1S(=O)(=O)N1CCN(C(=O)c2cc([N+](=O)[O-])c[nH]c2=O)CC1
1.4%,2.3%,6.6,-1.5%,Oc1ccccc1-c1cc(C(F)(F)F)nc(-c2ccccc2)n1
0.3%,-2.1%,2.4,-4.6%,CCn1c(SCC(=O)N/N=C/C=C\c2ccccc2[N+](=O)[O-])nc2ccccc21
-6.4%,-5.7%,-7.8,-4.7%,O=C(CCN1CCCCC1)N/N=C/c1c[nH]c2ccccc12
-3.6%,2.3%,3.0,1.7%,Cc1cc(C)c(C)c(OCCCCn2cnc3ccccc3c2=O)c1
-10.4%,-2.3%,4.2,-12.2%,N#C/C(=C/c1ccc(CNS(=O)(=O)c2ccccc2)o1)C(N)=O
7.9%,-0.8%,-2.0,0.7%,Cc1nn2c(COc3ccc(NC(=O)c4ccccc4Cl)cc3)nnc2c2ccccc12
